Bioassay records: PubChem BioAssay, several laboratories
ugtP null kill: compounds lethal to S. aureus RN4220 ugtP deletion mutant; growth inhibition, % (concentration not given with the values); OD600 growth, 16 h; some inactives read as strong as hits; 0.54% of 330,000 active;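 active = z-score under -3 and OD600 up to 0.15 on both plates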;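 note: plate controls were untreated wells for no effect and antibiotic for full effect; wells of about 80 µL received 100 nL stock; the first replicate is given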
Autofluor counter: compound fluorescence in toxin protease inhibitor counterscreen | compound autofluorescence counterscreen, microsphere flow cytometry; active compounds read high | 3.1% of 360,000 active | fluorescence intensity (no concentration beside the values) | AID 624483;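 active = at least 3 SD above the mean of all compounds, about 16000 in these data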;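 note: 100 nL of 1 mM stock went into each well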
BJeLR lethal: kills HRASV12-expressing BJeLR cells; BJeLR (HRASV12) viability, CellTiter-Glo ATP luminescence, 48 h; reference of the scale not given here; inhibition, % (no concentration beside the values); 0.17% of 300,000 active;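 active = replicate mean above 50%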;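 note: 50 nL library stock added to about 25 µL; numbers are from one replicate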
Mtb hypoxia rep: reduces hypoxia-regulated biosensor signal in M. tuberculosis | M. tuberculosis hypoxia-regulated fluorescent reporter, fluorescence | fluorescence inhibition, % (no concentration beside the values) | 0.1% of 300,000 active | AID 1159583;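 active = 35 to 45% if threefold the growth effect, above 45% if 1.5-fold the growth effect; inactive = the rest, general growth blockers included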;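 note: wells of about 50 µL received 100 nL stock; 0% = vehicle wells and 100% = reference inhibitor wells; whole bacteria with a GFP reporter of the hypoxia response; strong numbers were not always called active; many hits fall short of the cut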
PrP UTR inh: inhibition of PrP 5' UTR reporter expression. cell-based PrP 5' UTR mRNA reporter, plate reader. inhibition, % (test concentration not listed). 0.35% of 340,000 active;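 active = every replicate at 50% or more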;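 note: 0 = median of the neutral control wells; tested in H4 reporter cells; numbers are from one replicate; inactives centre near -14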
Sa RN4220 lethal: S. aureus RN4220 growth inhibition. OD600, 16 h. inhibition, % (concentration not given with the values). 0.33% of 330,000 active. AID 1259311;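 active = z-score of -3 or lower and OD600 up to 0.18 on both plates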;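 note: plate controls were untreated cells for no effect and reference antibiotic for full effect; stock transfer was 100 nL into about 80 µL; one replicate is shown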
Mtb hypoxia rep growth: further read-out of Mtb hypoxia rep, marked with its call; growth inhibition, %; measured here: M. tuberculosis growth (absorbance);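 0% = vehicle and 100% = reference antibiotic; read after six days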
Active calls of the source: *; . = not tested or not shown.

SMILES	ugtP null kill	Autofluor counter	BJeLR lethal	Mtb hypoxia rep	Mtb hypoxia rep growth	PrP UTR inh	Sa RN4220 lethal
COc1ccc(-n2c(-c3ccccc3[N+](=O)[O-])nc3ccccc3c2=O)cc1	16	3619	6	-1	5	-20	-2.6
O=C(NCCF)[C@H]1C[C@@H]1[C@H](NP(=O)(c1ccccc1)c1ccccc1)c1ccccc1	.	3936	-5	.	.	-21	.
Cc1cccc(C(C)Nc2ccc([N+](=O)[O-])cn2)c1 (configuration not stated)	1	6856	-12	11	8	-19	0.2
O=C(COc1ccc(Cl)cc1Cl)N1CCCC1	7	5596	-2	.	.	0	3.6
Cc1c(N)ccc(-n2nc3ccccc3n2)c1C	11	5357	-7	5	-2	.	5.8
Cc1cc(C(=O)OCC(=O)N2CC(C)OC(C)C2)ccc1[N+](=O)[O-] (configuration not stated)	-9	4433	-8	2	-5	-23	0.2
Cc1cc(C)nc(NC(=O)c2ccccc2O)n1	7	3553	0	18	5	-22	7.6
CCCc1nnc(NC(=O)c2ccc([N+](=O)[O-])cc2)s1	1	9454	3	-1	3	-13	2.1
O=C(O)c1ccc2c(=O)n(-c3ccc(F)cc3)c(=S)[nH]c2c1	6	3505	1	9	2	-15	0.7
CCOC(=O)CN(C(=O)c1ccccc1)c1ccccc1C	1	2953	5	.	.	-32	2.8
CCC(Cc1ccccc1)NC(=O)C1CCN(S(=O)(=O)c2c(C)noc2C)CC1 (configuration not stated)	7	7838	8	9	6	-13	4.0
Fc1ccc(CNc2nc3ccccc3n3nnnc23)cc1	9	5320	-8	8	7	-22	5.3
O=C(N/C(=C\c1cccnc1)C(=O)N1CCCCC1)c1cccc(Br)c1	-2	3700	-5	2	4	-21	0.6
CCOC(=O)CNC(=O)CSc1nnc(-c2ccccc2)n1Cc1ccco1	-6	3939	-3	.	.	-1	6.8
CC(NC(=O)/C=C/c1ccco1)c1nc2ccccc2n1Cc1c(Cl)cccc1Cl (configuration not stated)	-9	2340	-16	6	2	6	12
Nc1nc(Nc2cccc(Cl)c2)nc(NCc2ccco2)c1[N+](=O)[O-]	0	5113	-5	-11	-1	-31	-14
COc1ccccc1CN1CCNC(=O)C1CC(=O)N(C)Cc1nc(C)cs1 (configuration not stated)	.	4726	12	.	.	-21	.
Cc1ccc(S(=O)(=O)N(C)C)cc1NC(=O)CSc1nncs1	1	.	-2	-2	-3	-11	1.2
COCc1c(CN)cnc(C)c1N	5	9060	-4	6	3	-7	4.9
Cc1nc(SCC(=O)Nc2cccnc2Cl)nc(C)c1C	0	3193	11	-5	8	-12	0.0
O=S(=O)(c1cc(Cl)cc(Cl)c1O)N1CCC2(CC1)OCCO2	13	4330	-6	-10	-15	1	26
c1ccc2c(Cn3nnc4ccccc43)cccc2c1	4	8209	-2	20	9	3	7.0
Cc1cc(C)n(C(C)CNC(=O)c2ccc3c(c2)OCO3)n1 (configuration not stated)	4	3697	-7	3	2	-10	2.2
CC1Cc2ccccc2N1C(=O)CSc1nc2c(c(=O)n(C)c(=O)n2C)n1Cc1ccccc1 (configuration not stated)	7	4377	-2	7	-3	-8	-0.7
Cc1cccc(N2CCN(S(=O)(=O)c3ccc4c(c3)C(C)(C)C(=O)N4C)CC2)c1C	5	5984	-27	5	5	-15	3.1
Cc1cccc(C)c1NC(=O)C1CCCN1S(=O)(=O)c1ccc2c(c1)n(C)c(=O)c(=O)n2C (configuration not stated)	-3	5987	-8	.	.	-28	-1.6
Clc1ccc(-c2nnnn2-c2ccc(Cl)cc2)cc1	-4	.	4	7	12	-79	3.4
CC(C)C(=O)N1CCN(c2cc(N3CCN(C)CC3)c(F)cc2[N+](=O)[O-])CC1	5	4488	-33	13	7	-21	1.6
Cn1c(SCC(=O)N2CCCC2)nnc1-c1ccc(S(=O)(=O)N2CCCC2)cc1	1	10121	-10	6	6	-16	5.1
CCOC(=O)C1CCN(CC(O)COc2ccc(C(C)(C)C)cc2)CC1 (configuration not stated)	0	3151	7	-1	2	-9	11
COc1ccc(NCc2cc(=O)[nH]c3ccccc23)cc1	6	3440	-3	3	6	-18	2.3
CCCCOC(=O)C1C2C=C[C@]3(CN(CCCOC)C(=O)[C@H]13)O2 (some centres not stated)	2	2307	7	3	-5	-15	-4.9
NC(=S)N/N=C/c1ccc(C(F)(F)F)cc1	.	2563	-3	.	.	-20	.
Cc1ccc(CS(=O)(=O)CCC(=O)O)cc1	3	3273	-1	3	13	-13	-2.6
CN(C)CC[n+]1ccc(C(=O)c2ccccc2)cc1	12	4144	-14	6	-4	-13	1.9
CC1=NNC(=O)C1CCC(=O)NN=C/C=C/c1ccccc1 (configuration not stated)	6	.	.	6	6	.	2.3
Cc1ccccc1S(=O)(=O)Cc1ccc(C(=O)NCCN(Cc2ccccc2)C(C)C)o1	-3	4865	7	-4	0	-21	0.0
Cc1ccc2nc(SCC(=O)NN=Cc3ccco3)cc(C)c2c1	10	.	.	15	0	.	12
CC(C)c1ccc(NC(=O)CCS(=O)(=O)c2cccc3nonc23)cc1	11	5979	-18	7	15	-7	2.0
Cc1ccc(-c2cn3cccnc3n2)cc1NC(=O)c1c(-c2ccccc2Cl)noc1C	-1	10225	-2	-13	-5	.	5.8

Two records picked at random from the list so far, as already listed:
SMILES	ugtP null kill	Autofluor counter	BJeLR lethal	Mtb hypoxia rep	Mtb hypoxia rep growth	PrP UTR inh	Sa RN4220 lethal
CCOC(=O)CNC(=O)CSc1nnc(-c2ccccc2)n1Cc1ccco1	-6	3939	-3	.	.	-1	6.8
Cc1ccccc1S(=O)(=O)Cc1ccc(C(=O)NCCN(Cc2ccccc2)C(C)C)o1	-3	4865	7	-4	0	-21	0.0

The results go on.
SMILES	ugtP null kill	Autofluor counter	BJeLR lethal	Mtb hypoxia rep	Mtb hypoxia rep growth	PrP UTR inh	Sa RN4220 lethal
COc1ccc(C(=O)NCCc2cnc[nH]2)cc1OC	-2	3173	-1	0	-4	0	-3.0
Cn1cccc1CC(=O)NN=Cc1ccccc1	12	.	.	5	5	.	5.6
O=c1[nH]c2ccc(N=Cc3c(O)ccc4cc(Br)ccc34)cc2[nH]1	5	7856	-1	8	9	-11	8.5
CCOc1ccc(NC(=O)Nc2cccs2)cc1	18	3187	8	-3	-2	-79	5.2
O=C(Nc1cccc(-c2ccccc2)c1)N1CCN(C(=O)Nc2cccc(-c3ccccc3)c2)CC1	-8	4734	2	-7	-8	-15	1.5
NS(=O)(=O)c1ccc(NC(=O)COC(=O)C2(c3ccc(F)cc3)CCCC2)cc1	5	2120	2	7	9	-27	5.6
Cc1ccc(C(=O)NN=Cc2nc3ccccc3n2C)cc1	5	.	.	6	11	.	0.6
CC(=O)Nc1ccc(C(=O)OCC(=O)NCCC2=CCCCC2)cc1	1	5858	.	-4	5	0	1.5
Cc1ccc(NCc2ccccc2O)cc1	14	10396	-8	4	7	-29	5.4
O=C(CCc1ccc(O)c(O)c1)NN=Cc1cc2c(cc1[N+](=O)[O-])OCO2	-4	.	.	5	6	.	5.9
COC(=O)C1=C(c2cc3ccccc3s2)CC2CCC1N2C(=O)N1CCC(C)CC1 (configuration not stated)	4	.	.	1	-4	.	5.3
O=S(=O)(c1ccc(Oc2ccc(Br)cc2)cc1)N1CCOCC1	16	4730	-2	.	.	-20	-5.1
Cc1ccc(C(=O)NCC(=O)N/N=C/c2cccs2)cc1[N+](=O)[O-]	.	4267	-8	.	.	-27	.
NC(=O)CSc1nnc(NC(=O)c2ccc(S(=O)(=O)N3CCCCC3)cc2)s1	4	6463	-3	0	5	1	2.6
O=C(Cc1ccc2c(c1)OCCO2)N1CCN(S(=O)(=O)c2cccs2)CC1	2	6421	5	15	9	-18	14
CCN(CC)CCCN1C(=O)C(O)=C(C(=O)c2ccco2)C1c1ccc(OC(C)C)cc1 (configuration not stated)	7	4462	-1	.	.	-11	2.8
N#C/C(=C(/O)CCl)c1nc2ccccc2[nH]1	.	4064	-3	.	.	-16	.
Cc1ccc(S(=O)(=O)NC(C)c2ccccc2)cc1[N+](=O)[O-] (configuration not stated)	.	4175	-3	.	.	-44	.
O=C(NNC(=O)c1csc(-c2cnccc2C(F)(F)F)n1)c1ccc(C(F)(F)F)cc1	10	.	-7	12	5	.	3.6
COc1ccc(S(=O)(=O)N2CCOC2CNC(=O)C(=O)NCCN2CCOCC2)cc1C (configuration not stated)	1	6036	-1	5	1	0	3.4
CC1CCCC(C)N1CC(O)Cn1c2ccccc2c2ccccc21 (configuration not stated)	6	4066	-13	-1	11	-22	3.8
CC1CCCCN1C(=O)CSc1nc(-c2ccccc2)cc(=O)[nH]1 (configuration not stated)	-2	3375	2	.	.	10	6.3
CCN(CC)S(=O)(=O)c1ccc(S(=O)(=O)N2CCN(C(=O)c3ccco3)CC2)cc1	7	15925	5	-1	-3	-4	0.8
CC(C(=O)NN=C(c1ccccc1)c1ccccc1)N1CCOCC1 (configuration not stated)	-13	4796	0	-4	-4	-35	-0.3
Cc1cccc(C)c1NC(=O)CSc1nnc(-c2cccnc2)o1	0	4100	6	1	0	-13	0.5
O=C(CCNS(=O)(=O)c1ccc(Cl)cc1)NCc1cccnc1	-4	23127*	3	2	2	-28	1.1
CCOc1ccc(CC2S/C(=N/N=C/c3ccco3)NC2=O)cc1 (configuration not stated)	.	4351	0	.	.	-14	.
Cn1c(SCc2ccccn2)nnc1-c1cnccn1	2	10957	2	1	9	-28	5.1
CCOc1ccc(-n2c(C)cc(/C=N/N(C)C)c2C)cc1	.	2951	-2	.	.	-5	.
CC1Sc2ccc(S(=O)(=O)CCC(=O)NCc3ccccc3)cc2NC1=O (configuration not stated)	6	5922	-3	-1	0	-12	-1.3
CCC(=O)N1CCN(c2ccc(NC(=S)NC(=O)c3cccc([N+](=O)[O-])c3)cc2)CC1	28	2274	-11	6	6	-13	-1.1
Cc1ccc(NC(=S)NCCc2ccc(S(N)(=O)=O)cc2)cc1C	16	2399	17	-1	0	-11	2.4
CC1(C)CC(NC(=O)C23CCC(C)(C2Br)C3(C)C)CC(C)(C)N1 (configuration not stated)	-1	3593	0	-5	7	-45	2.2
Cc1ccc(C(=O)NCc2ccccn2)o1	1	2387	-5	11	3	-9	3.7
CCCc1cc(=O)oc2cc(OCC(=O)NCCCN3CCOCC3)ccc12	11	5199	12	5	0	-16	4.2
CCOC(=O)N1CCN(C(=O)CCSc2ccc(C)cc2)CC1	3	2193	-8	.	.	-12	-0.9
O=C(COC(=O)c1ccccc1Br)Nc1ccccc1F	.	3349	-3	.	.	-7	.
COc1ccc(CCN(C)C(=O)CCCN2C(=O)c3cccc4cccc(c34)C2=O)cc1OC	0	5955	0	3	9	14	1.2
CC(C)Oc1ccc(/C=C/C(=O)NCC2COc3ccccc3O2)cc1 (configuration not stated)	5	6261	8	-16	2	-5	-5.0
Oc1ccc(-c2nccc(-c3ccc(Br)cc3)n2)cc1	5	4132	-6	16	-1	-31	16

Compounds above that contain a thiophene ring, fused or not (four):
SMILES	ugtP null kill	Autofluor counter	BJeLR lethal	Mtb hypoxia rep	Mtb hypoxia rep growth	PrP UTR inh	Sa RN4220 lethal
CCOc1ccc(NC(=O)Nc2cccs2)cc1	18	3187	8	-3	-2	-79	5.2
COC(=O)C1=C(c2cc3ccccc3s2)CC2CCC1N2C(=O)N1CCC(C)CC1 (configuration not stated)	4	.	.	1	-4	.	5.3
Cc1ccc(C(=O)NCC(=O)N/N=C/c2cccs2)cc1[N+](=O)[O-]	.	4267	-8	.	.	-27	.
O=C(Cc1ccc2c(c1)OCCO2)N1CCN(S(=O)(=O)c2cccs2)CC1	2	6421	5	15	9	-18	14

Continuation:
SMILES	ugtP null kill	Autofluor counter	BJeLR lethal	Mtb hypoxia rep	Mtb hypoxia rep growth	PrP UTR inh	Sa RN4220 lethal
O=C(O)c1cnc(-c2ccccc2)nc1C(F)(F)F	1	3576	-1	4	10	11	2.0
O=C(CN1C(=O)CCC1=O)Nc1ccc(Cc2ccc(NC(=O)CN3C(=O)CCC3=O)cc2)cc1	13	5411	-2	0	-2	-6	6.2
Cc1nc2ccccc2c(=O)n1NC(=O)c1cncc(Br)c1	10	7419	1	8	-1	-44	3.7
O=C(C1CC1)N1CCN=C1SCc1ccc(F)cc1	-2	6242	-3	.	.	-17	7.9
COc1ccc(CCN(C)Cc2ccncc2)cc1OC	4	10841	-11	-4	10	-17	3.1
Cc1nnc(N2C(=O)c3oc4ccccc4c(=O)c3C2c2ccco2)s1 (configuration not stated)	-4	5359	-17	.	.	-9	3.4

As entered above:
O=C(CN1C(=O)CCC1=O)Nc1ccc(Cc2ccc(NC(=O)CN3C(=O)CCC3=O)cc2)cc1 in Mtb hypoxia rep growth shows -2
COc1ccc(CCN(C)Cc2ccncc2)cc1OC in Sa RN4220 lethal shows 3.1
O=C(C1CC1)N1CCN=C1SCc1ccc(F)cc1 in PrP UTR inh shows -17

Outcome played no part in choosing rows; 4% or so of the library scored in one or more.
